VACV Venus inh: vaccinia inhibition (Venus reporter). Vaccinia virus Venus reporter expression, fluorescence. Potency, µM (highest dose often 36.5 µM), for inactives: at the highest dose activity change, negative = inhibition, actives largely listed as inhibitors. actives 0.46% (n = 330,000); active means well fitted inhibition curve with a large enough effect; inconclusive means small, poorly fitted or top-dose-only effect; inactive means no such curve, though single readings can be large or run the other way; tested in A549 cells; also: nearly all actives have a fitted effect of over 30% in size; inactives centre near -10
Vaccinia mCherry: inhibitors of vaccinia virus infection (mCherry reporter signal) | Vaccinia virus mCherry reporter infection, fluorescence; about a quarter of the inactives have no number | Potency, µM (doses to about 36.5 µM), for inactives: at the top dose activity change, negative = inhibition, most hits filed as inhibitors | actives 0.63% (n = 310,000) | AID 720579; active = well fitted inhibition curve with a large enough effect; inconclusive = small, poorly fitted or top-dose-only effect; inactive = no such curve, though single readings can be large or run the other way; tested in A549 cells; also: nearly all actives have a fitted effect of over 35% in size; inactives centre near -10
An asterisk follows results filed as active; i = inactive; ? = inconclusive; · = not tested or not shown; [ ] = another dose, or the depositor's remark. % is scaled to controls: 0 for no effect and ±100 for the full control effect; potency is read from the fitted curve at half-maximal effect.

SMILES	VACV Venus inh	Vaccinia mCherry
COc1ccc(OCC(=O)Sc2ccc(C)cc2)cc1	-21%	·
C/C(=N\Nc1ccc(Cl)c(C(=O)O)c1)c1cccs1	-1%	?
CCc1ccc(Nc2cc(C)nc3nc(Cc4ccc(Cl)cc4)nn23)cc1	?	?
CCC(=O)N1CCc2cc(Br)cc(S(=O)(=O)N3CCN(c4ccc(C)cc4)C(C)C3)c21 (configuration not stated)	-8%	-5%
Cn1c2ccccc2c2c(C(=O)N3CCN(c4ccccn4)CC3)cn(C3CCCC3)c(=O)c21	-23%	?
S=C1NNC2(NN1)C1CC3CC(C1)CC2C3	-14%	i
C/C(=N\O)C(C)(C)Nc1ccc(Cl)cc1	20%	-20%
Cc1cc([N+](=O)[O-])ccc1NC(=S)NC(=O)C(c1ccccc1)c1ccccc1	0%	·
CCCCOC(=O)c1ccc(-n2nnc3c(sc4nc(C)cc(C)c43)c2=O)cc1	-8%	-6%
CC(=O)NCCOc1cccc2cccnc12	-8%	-13%
O=C(NCC1CC1)c1ccc(-c2cn[nH]c2)c2ccoc12	-19%	-12%
CCOC(=O)c1c(NC(=O)OC)sc(C(=O)N(CC)CC)c1C	-6%	i
COc1ccc(C(=O)CSc2n[nH]c(=O)n2Cc2ccco2)cc1	-4%	-21%
CC(C)C[C@H](NC(=O)[C@H](CCCCN)NC(=O)[C@H](CCCNC(=N)N)NC(=O)[C@H](C)NC(=O)[C@H](CO)NC(=O)[C@H](CCCCN)NC(=O)[C@H](CCCNC(=N)N)NC(=O)[C@H](C)NC(=O)CNC(=O)[C@@H](NC(=O)[C@H](Cc1ccccc1)NC(=O)CNC(=O)CNC(=O)[C@@H](N)Cc1ccccc1)[C@H](C)O)C(=O)N[C@@H](C)C(=O)N[C@@H](CC(N)=O)C(=O)N[C@@H](CCC(N)=O)C(=O)O	-13%[3.33 µM]	-14%[3.33 µM]
CC1CCCCN1CCNC(=O)CCc1nnc2n(Cc3ccccc3)c(=O)c3ccccc3n12 (configuration not stated)	-1%	-9%
Cn1nnnc1SCC(=O)Nc1cc(S(=O)(=O)N2CCCCC2)ccc1Cl	-4%	-19%
Cc1ccc(S(=O)(=O)N(C)CC(=O)NNC(=O)Cc2cccc(F)c2)cc1	-13%	i
Cc1ccccc1OCCNc1ccc(C(F)(F)F)cc1[N+](=O)[O-]	-5%	·
OCc1cc(-c2ccc(Cl)c(Cl)c2)on1	-11%	-7%
COc1cc2c(cc1NC(=O)c1cc(-c3ccccn3)nc3ccccc13)oc1ccccc12	-9%	-12%
C[C@H](NC(=O)c1[nH]cnc1C(=O)Nc1ccc(CNC(=O)OC(C)(C)C)cc1)C(=O)OC(C)(C)C	?	?
CCN(CC)C(=O)CSc1nnc(-c2ccc(O)cc2)n1CC1CCCO1 (configuration not stated)	-8%	-12%
Cc1ccc(S(=O)CCNC(=O)Cc2ccc(Cl)cc2)cc1 (configuration not stated)	-24%	-12%
O=C(CCCc1nc2ccccc2s1)Nc1ccccc1	-2%	0%
CN1/C(=C\C(=O)C[n+]2ccc(C(=O)c3ccccc3)cc2)C(C)(C)c2ccccc21	?	-17%
CCC(C)C(=O)Nc1nnc(-c2cccs2)s1 (configuration not stated)	-11%	-18%
N#Cc1sc2nc3c(cc2c1N)CCCC3	-20%	-7%
COc1ccccc1C(=O)NNC(=O)c1cccc(F)c1	-7%	i
CCOc1ccc(N(CC(=O)NCCc2ccc(OC)cc2)S(C)(=O)=O)cc1	-16%	-11%
CCOc1ccc(C(=O)Nc2ccc(NC(=O)c3ccccc3)cc2)cc1Br	8%	-7%
Cc1ccc(Cl)cc1Nc1nn2c(=O)c3ccc(C(=O)NC4CCC(C)CC4)cc3nc2s1 (configuration not stated)	-5%	-1%
CSc1cccc(CN2CCC(Oc3cccc(C(=O)N4CCCC4)c3)CC2)c1	-11%	-16%
O=S(=O)(CCN1CCOCC1)c1ccc(Oc2ccc(S(=O)(=O)CCN3CCOCC3)cc2)cc1	2.2µM*	?
CC(=O)Nc1ccc(NC(=O)COc2cccc3c2OC(C)(C)C3)cc1	-22%	-11%
O=C(c1cc([N+](=O)[O-])ccc1Cl)N1CCc2ccccc21	?	?
COc1cc2nc(NC(=O)c3ccc(S(=O)(=O)N4CCc5ccccc54)cc3)sc2cc1OC	-18%	-27%
CCOC(=O)c1c(-c2ccc(OC)c(OC)c2)csc1NC(=O)c1ccccc1F	-2%	-12%
CC(OC(=O)c1cccc(-n2cnnn2)c1)C(=O)Nc1ccccc1F (configuration not stated)	-7%	i
CCC(OC(=O)C1=Cc2ccccc2OC1)C(=O)NCc1ccco1 (configuration not stated)	-13%	-1%
O[C@@H]1CN(CC2CCCCC2)[C@@H](c2ccc(Cl)cc2)C[C@H]1n1cc(C2CC2)nn1	14µM*	?
CCCn1c(SCC(=O)NC(C)(C)C)nnc1C(C)C	-12%	-19%
O=C(C[C@@H]1C[C@H]2c3cc(NC(=O)Nc4ccccc4F)ccc3O[C@H]2[C@H](CO)O1)NCC(F)(F)F	-16%	-18%
C=C(c1ccccc1)P(=O)(O)O	-2%	-12%
N#CCCn1ccc(NC(=O)c2ccc(Cl)cc2)n1	-5%	·
Cc1cc(C)n(CC(O)CN(c2ccccc2)S(=O)(=O)c2ccccc2)n1 (configuration not stated)	-4%	·
COc1ccc(-n2c(CNC(=O)c3ccc(OC)cc3OC)nnc2SC)cc1	-1%	-7%
CCOc1ccc(CNC(=O)c2ccc3nc(CC)c(CC)nc3c2)cc1OC	-9%	-9%
CCCn1c(NC(=O)c2ccc([N+](=O)[O-])o2)nc2ccccc21	-10%	?
Cc1sc2nc(SCC(=O)N3CCCC3)[nH]c(=O)c2c1C	-6%	-16%
CCc1nn2cc(C(=O)c3ccccc3O)cnc2c1-c1ccc(F)cc1	-13%	-13%
CC(=O)c1ccc(NC(=O)c2sc3nc(C)c(C)c(C)c3c2N)cc1	0%	i
Cc1nc(CNS(=O)(=O)c2ccc(Br)cc2)cs1	-20%	-5%
O=C(CSc1nccn1-c1ccc(F)cc1)Nc1nc2ccccc2s1	-12%	-1%
O=P(Oc1ccccc1)(Oc1ccccc1)C(O)c1ccccc1 (configuration not stated)	-11%	i
O=C(NCCc1ccccc1)C(c1ccc(F)cc1)N(C(=O)c1csnn1)C1CC1 (configuration not stated)	3%	-24%
O=C(Nc1nnc(-c2ccc(F)cc2)o1)C1CCCN1S(=O)(=O)c1cccs1 (configuration not stated)	-1%	i
CC(=O)NC(CC(=O)Nc1ccc(S(=O)(=O)N2CCOCC2)cc1)c1ccccc1 (configuration not stated)	-10%	-21%
CC(C)(C)NC(=O)C(c1ccc(O)cc1)N(C(=O)CCC(=O)Nc1nccs1)c1cccc(F)c1 (configuration not stated)	-2%	1%
COc1ccc(N/C=C/c2nc(SC)nnc2C)cc1	-2%	-13%
Cc1nn(-c2ccccc2)c(Cl)c1C1C(C#N)=C(N)OC2=C1C(=O)CC(C)(C)C2 (configuration not stated)	?	·
Other structures follow.
SMILES	VACV Venus inh	Vaccinia mCherry
c1ccc(CNc2nc3c(-c4ccccc4)nnn3c3ccccc23)cc1	-8%[7.34 µM]	-9%[7.34 µM]
CCO/N=C(/C)c1c(O)c(C)c(-c2ccccc2)n(-c2ccccc2)c1=O	9%	2%
O=C(N/C(=C\c1ccc([N+](=O)[O-])cc1)C(=O)N1CCOCC1)c1ccco1	-2%	-3%
O=C(OCCN1C(=O)c2cccc3c(N4CCOCC4)ccc(c23)C1=O)c1ccccc1Cl	-11%	i
O=C(COC(=O)CNS(=O)(=O)c1ccc(Br)cc1Cl)NC1CCCC1	-15%	-20%
CSCCC(NC(=O)c1ccc(Cl)cc1Cl)C(=O)N(C)Cc1nc2ccccc2c(=O)[nH]1 (configuration not stated)	?	?
CCCCOc1ccc(/C=C/C(=O)Nc2ccc([N+](=O)[O-])cc2C)cc1	-5%	i
CCCCn1nnnc1C1(C)CCC(=O)N1Cc1ccc(OC)cc1 (configuration not stated)	3%	5%
CCOc1ccc(CN2CCN(C3CCC3)CC2CCO)cc1 (configuration not stated)	-21%	-10%
Cc1oc(-c2ccccc2)cc1C(=O)NC(Cc1c[nH]c2ccccc12)C(=O)O (configuration not stated)	-7%	-7%
N#CC1=C(N)SC(N)=C(C#N)C1c1cccc(O)c1	8%	i
O=C1C(Cl)=C(N2CCCC2)C(=O)N1c1ccc(F)cc1	-8%	0%
O=C(C1CCCN(C2CC(=O)N(c3ccc(Cl)cc3)C2=O)C1)N1CCCC1 (configuration not stated)	-10%	i
CC(C)C[C@H]1CN=C(N(C)C)N1CC1CCCCCC1	-29%	?
O=C1c2ccccc2NC(c2cccc(O)c2)N1NS(=O)(=O)c1ccccc1 (configuration not stated)	-14%	i
CCOc1ccc(CC(=O)NCCc2sc3nc(-c4ccc(F)cc4)nn3c2C)cc1	-26%	-17%
CC(=O)N[C@@H](Cc1c[nH]c2ccccc12)C(=O)OCC(=O)NCc1ccc2c(c1)OCO2	-6%	-13%
COc1cccc(CNC(=O)Cn2c(=O)c3cccn3c3ccc(F)cc32)c1OC	-16%	-10%
COc1ccc([C@@H]2[C@@H]3C(=O)N(C(C)(C)C)C(=O)[C@@H]3[C@]3(CC(C)C)C(=O)N(c4cccc(Br)c4)C(=O)N23)cc1	-25%	i
COc1ccc(/C=C/C(=O)N2CCN(C)CC2)cc1S(=O)(=O)N1CCCCC1	-12%	-13%
CCn1c(=O)n(CC)c2cc(N3CCCCC3)c(NC(=O)Nc3ccccc3C(F)(F)F)cc21	-25%	-15%
Cc1ccc(S(=O)(=O)N2CCOCC2)cc1C(=O)NC1CCCC(C)C1C (configuration not stated)	-8%	-13%
CC(C)(C)c1ccc(C(=O)Nc2ccc(-c3nc4cc(Cl)ccc4o3)cc2)cc1	1%	-6%
O=C(CCN1C(=O)/C(=C/c2ccccc2)SC1=S)NNC(=O)c1cccnc1	-2%	-14%
CCSc1nnc(NC(=O)c2ccc3c(c2)OCO3)s1	-13%	i
O=C(NCCC1=CCCCC1)C1CCN(S(=O)(=O)c2cccc3cccnc23)CC1	-18%	11%
COc1ccccc1N1C(=O)C(Cl)=C(Nc2ccccc2O)C1=O	16%	-15%

Exported bar-delimited: 18 of the compounds above
Structure | VACV Venus inh | Vaccinia mCherry
Cc1oc(-c2ccccc2)cc1C(=O)NC(Cc1c[nH]c2ccccc12)C(=O)O (configuration not stated) | -7% | -7%
N#CC1=C(N)SC(N)=C(C#N)C1c1cccc(O)c1 | 8% | i
O=C1C(Cl)=C(N2CCCC2)C(=O)N1c1ccc(F)cc1 | -8% | 0%
O=C(C1CCCN(C2CC(=O)N(c3ccc(Cl)cc3)C2=O)C1)N1CCCC1 (configuration not stated) | -10% | i
CC(C)C[C@H]1CN=C(N(C)C)N1CC1CCCCCC1 | -29% | ?
O=C1c2ccccc2NC(c2cccc(O)c2)N1NS(=O)(=O)c1ccccc1 (configuration not stated) | -14% | i
CCOc1ccc(CC(=O)NCCc2sc3nc(-c4ccc(F)cc4)nn3c2C)cc1 | -26% | -17%
CC(=O)N[C@@H](Cc1c[nH]c2ccccc12)C(=O)OCC(=O)NCc1ccc2c(c1)OCO2 | -6% | -13%
COc1cccc(CNC(=O)Cn2c(=O)c3cccn3c3ccc(F)cc32)c1OC | -16% | -10%
COc1ccc([C@@H]2[C@@H]3C(=O)N(C(C)(C)C)C(=O)[C@@H]3[C@]3(CC(C)C)C(=O)N(c4cccc(Br)c4)C(=O)N23)cc1 | -25% | i
COc1ccc(/C=C/C(=O)N2CCN(C)CC2)cc1S(=O)(=O)N1CCCCC1 | -12% | -13%
CCn1c(=O)n(CC)c2cc(N3CCCCC3)c(NC(=O)Nc3ccccc3C(F)(F)F)cc21 | -25% | -15%
Cc1ccc(S(=O)(=O)N2CCOCC2)cc1C(=O)NC1CCCC(C)C1C (configuration not stated) | -8% | -13%
CC(C)(C)c1ccc(C(=O)Nc2ccc(-c3nc4cc(Cl)ccc4o3)cc2)cc1 | 1% | -6%
O=C(CCN1C(=O)/C(=C/c2ccccc2)SC1=S)NNC(=O)c1cccnc1 | -2% | -14%
CCSc1nnc(NC(=O)c2ccc3c(c2)OCO3)s1 | -13% | i
O=C(NCCC1=CCCCC1)C1CCN(S(=O)(=O)c2cccc3cccnc23)CC1 | -18% | 11%
COc1ccccc1N1C(=O)C(Cl)=C(Nc2ccccc2O)C1=O | 16% | -15%
